Screening results from PubChem.
Cruzain inh Det: blocks cruzain activity in presence of Triton detergent; actives 0.43% (n = 200,000); AID 1478; purified cruzain, Z-FR-AMC fluorescence, 0.01% Triton; P25779; Potency, µM, without a hit: max response, negative = inhibition, usual class: inhibitors;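 also: plate controls were neutral wells for no effect and buffer without enzyme for full effect; nearly all actives have a fitted effect of over 40% in size; top concentration of the series not given in the record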
Target sequence (P25779 123-467 limits assumed): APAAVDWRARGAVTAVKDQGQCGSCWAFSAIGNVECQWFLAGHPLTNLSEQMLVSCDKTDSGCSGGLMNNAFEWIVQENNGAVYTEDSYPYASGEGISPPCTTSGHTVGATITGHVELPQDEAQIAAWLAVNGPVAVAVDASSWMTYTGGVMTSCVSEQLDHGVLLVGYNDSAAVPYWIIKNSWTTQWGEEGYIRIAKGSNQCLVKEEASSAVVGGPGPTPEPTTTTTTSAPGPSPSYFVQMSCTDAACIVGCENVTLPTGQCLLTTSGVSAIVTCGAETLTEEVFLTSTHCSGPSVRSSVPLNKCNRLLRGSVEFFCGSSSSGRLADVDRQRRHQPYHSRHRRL
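15 min RT preincubation of 1.5 nM cruzain with compound, then 2 uM Z-FR-AMC added; kinetic AMC fluorescence, 60 s delta. Triton X-100 0.01%, pH 5.5.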
MARV entry inh: Marburg virus entry inhibition; Marburg virus pseudotyped entry inhibition, cell reporter; control for the full effect not named in the record; about a third of the inactives were read at about 46 µM; Potency, µM (top dose mostly 37.8 µM), without a hit: at the highest dose activity change, negative = inhibition, usual class: inhibitors; actives 1.8% (n = 300,000); AID 540276; active = well fitted inhibition curve with a large enough effect; inconclusive = small, poorly fitted or top-dose-only effect, or effect the other way; inactive = flat fitted curve, though single readings scatter; tested in HEK293 cells; about a fifth of its hits are not listed in these tables; also: % is scaled to controls: 0 for no effect and ±100 for the full control effect; luciferase read-out
LASV entry inh: Lassa virus entry inhibition | Lassa virus pseudotype entry inhibition, cell reporter; control for the full effect not named in the record | Potency, µM (titrated, usually from 37.9 µM), inactives show at the top dose activity change, negative = inhibition, most hits filed as inhibitors | actives 1.2% (n = 300,000) | AID 540256; active means well fitted inhibition curve with a large enough effect; inconclusive means small, poorly fitted or top-dose-only effect, or effect the other way; inactive means flat fitted curve, though single readings scatter; tested in HEK293 cells; also: % is scaled to controls: 0 for no effect and ±100 for the full control effect; nearly all actives have a fitted effect of over 50% in size; luciferase read-out
NS1 function inh: influenza NS1 inhibition. Potency, µM (highest dose often 46.1 µM), for the others: top-dose activity, positive = more growth. S. cerevisiae slowed by influenza A NS1, growth recovery by OD600. actives 0.4% (n = 270,000); active means well fitted rising curve with a large enough effect; inconclusive means small, poorly fitted or top-dose-only effect; inactive means no such curve, though single readings can be large or run the other way; also: nearly all actives have a fitted effect of over 50% in size
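Read-out: OD600 growth recovery of NS1-expressing budding yeast. Cells grown overnight at 30C in -URA glucose medium, washed, resuspended and diluted 1:100 in 2% galactose assay medium, pH 6.0. Same strain lacking NS1 served as positive control.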
RE007 growth inh: less growth of the S. pombe RE007 Vpr strain; S. pombe RE007 Vpr strain, BacTiter-Glo ATP luminescence, 24 h; control for the full effect not named in the record; Potency, µM (doses to about 92.2 µM), for inactives: at the top dose activity change, negative = less growth; actives 0.21% (n = 360,000); active = well fitted falling curve with a large enough effect; inconclusive = small, poorly fitted or top-dose-only effect; inactive = no such curve, though single readings can be large or run the other way;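 also: % is scaled to controls: 0 for no effect and ±100 for the full control effect; nearly all actives have a fitted effect of over 50% in size; the assay follows cell death caused by Vpr and the record does not say whether a fall means rescue or toxicity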
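Fission yeast RE007 carrying one integrated HIV-1 vpr copy, seeded at OD 0.01 in PMG+AL medium with 23 nL pinned compound. Grown 24 h at 30 degrees; viability read by BacTiter-Glo luminescence after 5 min.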
SARS PLpro yeast: SARS-CoV PLP inhibition in yeast; S. cerevisiae expressing SARS-CoV PLpro, growth rescue; control for the full effect not named in the record; actives 0.19% (n = 330,000); Potency, µM (titrated, usually from 32.9 µM), for inactives: top-dose activity, positive = growth rescue; active means well fitted rising curve with a large enough effect; inconclusive means small, poorly fitted or top-dose-only effect; inactive means no such curve, though single readings can be large or run the other way; also: 0% is about no effect; nearly all actives have a fitted effect of over 55% in size; growth read by luminescence after 48 h
2A StopGo: lowers the luciferase signal of an FMDV 2A StopGo reporter. human cells with a luciferase reporter of 2A StopGo recoding; control for the full effect not named in the record. Potency, µM (highest dose often 57.9 µM), for inactives: at the top dose signal change, negative = less light. actives 1.2% (n = 410,000). AID 1159524; active = well fitted falling curve with a large enough effect; inconclusive = small, poorly fitted or top-dose-only effect; inactive = no such curve, though single readings can be large or run the other way; tested in HEK293T cells; also: % is scaled to controls: 0 for no effect and ±100 for the full control effect; nearly all actives have a fitted effect of over 45% in size; luciferase light after 4 h
Cruzain inh noDet: cruzain (T. cruzi) inhibition without detergent; P25779; purified cruzain, Z-FR-AMC fluorescence, no detergent; Potency, µM, without a hit: max response, negative = inhibition, hits mostly inhibitors; actives 2.3% (n = 200,000);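 also: plate controls were enzyme without inhibitor for no effect and buffer without enzyme for full effect; nearly all actives have a fitted effect of over 40% in size; top concentration of the series not given in the record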
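Detergent-free condition (0.00005% Triton X-100) in acetate buffer pH 5.5 with DTT. 1.5 nM enzyme and compound were pre-mixed 15 min, then 2 uM Z-FR-AMC substrate added; reaction progress from fluorescence change between first and third reads (60 s).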
Starred values were filed as active, the others as inactive; ? = inconclusive; . = no result given; & = joins results of further samples; [ ] = another dose, or the depositor's remark. Unless noted, calls follow the shape of the dose curve; as a rule, active = well fitted curve in the direction sought with a large enough effect; inconclusive = small, poorly fitted or top-dose-only effect, or another doubt; inactive = no such curve, though single readings can be large; an effect the other way counts as inactive or inconclusive. Potency is read from the fitted curve at half-maximal effect.

SMILES	Cruzain inh Det	MARV entry inh	LASV entry inh	NS1 function inh	RE007 growth inh	SARS PLpro yeast	2A StopGo	Cruzain inh noDet
COCCCNC(=O)Cn1ncc2ccsc2c1=O	6.6%	.	.	-1%	-3%	5%	-18%	14%
CCS(=O)(=O)N1Cc2ccccc2CC1C(=O)Nc1ncc(C)s1 (stereo not given)	.	3%	18%	0%	1%	1%	69%[activator]	.
CCOc1ccc(-n2nnc3c(=O)n(CC(=O)NCc4ccco4)cnc32)cc1	.	-4%[46.1 µM]	19%	2%	-16%	0%	-11%	.
COc1ccc2nc(NC(=O)c3cc(=O)c4cc(C)cc(C)c4o3)sc2c1	-3.8%	.	-2%[46.1 µM]	.	.	.	-4%	-5%
Cc1sc(NC(=S)NC(=O)c2ccco2)c(C(N)=O)c1C	.	?	1%	.	-11%	0%	58%[activator]	.
O=C(O)Cc1csc(-c2ccccc2)n1	.	-7%[46.1 µM]	9%[46.1 µM]	2%	-26%	-1%	17%	.
CCOc1ccccc1NC(=O)CN1C(=O)CC(c2ccc(OC)c(OC)c2)Sc2ccccc21 (stereo not given)	-3.3%	?	.	.	.	.	?	?
COc1cccc(CNC(=S)Nc2ccc(Cl)cc2C)c1	.	2%	-5%	-1%	0%	21%	38%[activator]	.
Nn1c(SCC(=O)Nc2cccc(C(F)(F)F)c2)nncc1=O	.	-16%[46.1 µM]	-22%[46.1 µM]	?	7%	3%	-11%	.
Cc1ccc(Cl)cc1N1CCN(C(=O)C2CCCN(S(=O)(=O)c3cnc[nH]3)C2)CC1 (stereo not given)	-3.8%	?	-23%	-9%	10%	3%	-16%	?
CCOc1ccc(CN(C)C(=O)[C@H](Cc2ccccc2)NC(=O)OCc2ccccc2)cc1OC	.	4.5µM*	8.9µM*	-1%	12%	-3%	20µM*	.
COCCN(C(=O)CCC(=O)Nc1cc(C)on1)C(C(=O)NC1CCCC1)c1ccc(C(C)C)cc1 (stereo not given)	.	-22%[46.1 µM]	?	16%	-16%	-2%	-3%	.
COC(C(=O)C(O)C(C)O)C1Cc2cc3cc(OC4CC(OC5CC(O)C(O)C(C)O5)C(O)C(C)O4)c(C)c(O)c3c(O)c2C(=O)C1OC1CC(OC2CC(OC3CC(O)C(OC)C(C)O3)C(O)C(C)O2)C(O)C(C)O1 (stereo not given)	.	-26%	0%	.	29%	.	3%	.
CC1CCN(c2ccc(NC(=O)c3cccc(Cl)c3)cc2C(=O)O)CC1	2.6%	.	11%[46.1 µM]	.	.	.	-2%	1%
O=C(Nc1ccc(Cl)cc1)N1CCC(c2nc(-c3ccccc3Cl)no2)CC1	-0.2%	?	-44%	-103%	-11%	-8%	0%	0%
O=c1[nH]c(CN2CCN(c3ccccn3)CC2)nc2c(Br)cc(Br)cc12	.	.	.	-1%	-6%	0%	-10%	.
CN(C(=O)COC(=O)c1ccccc1C(=O)N1CCN(c2ccccc2)CC1)c1ccccc1	.	3%	?	.	-10%	3%	-11%	.
Cc1ccccc1-n1cc(-c2ccc(Br)cc2)nc1SCC(N)=O	.	?	?	-8%	17%	-1%	-20%	.
COc1ccc(NC(=S)N(CCN(C)C)C(C)c2ccco2)cc1Cl (stereo not given)	0.2%	?	0%	2%	.	1%	21%	-6%
COc1cccc(C(C)NC(=O)Nc2cc(Cl)ccc2OC)c1 (stereo not given)	.	?	12%	3%	8%	0%	-8%	.
Cc1ccc2nc(C)cc(NCCO)c2c1	-0.7%	?	0%	2%	6%	7%	-3%	-10%
Cc1ccc(S(=O)(=O)C/N=C(/NC(=S)N(c2ccccc2)c2ccccc2)c2ccccc2)cc1	-2.8%	?	-7%	10µM*	2%	17%	.	-3%
CNC(=O)COc1ccccc1C(=O)Nc1ccc2c(c1)oc1ccccc12	-5.7%	21µM*	?	4%	11%	-5%	14%	-22%
COc1cccc(CNC(=O)Nc2ccc3c(c2)N(C)C(=O)c2ccccc2S3)c1	-4.0%	-6%[46.1 µM]	-17%[46.1 µM]	.	.	.	-25%	-3%
CCOc1ccccc1OCCN1CCCC1	.	.	.	-2%	-17%	-4%	7%	.
COCCn1nnnc1CN1CCN2CCCC2C1 (stereo not given)	0.3%	-9%	13%	-1%	-11%	0%	0%	-4%
O=C(NCCCO)C(=O)Nc1c2c(nn1-c1ccccc1)CSC2	-5.5%	.	17%[46.1 µM]	.	.	.	4%	-1%
CC(=O)OC1(C(C)=O)CCC2C3CC(Cl)C4=CC(=O)CCC4(C)C3CCC21C (stereo not given)	.	?	?	.	6%	.	-17%	.
Cc1ccc(CNC(=O)c2cc3sccc3n2Cc2ccc(Cl)cc2)cc1	-3.0%	-16%[46.1 µM]	3%[46.1 µM]	.	.	.	-8%	-24%
CN1CCN(c2ccc(-c3ccnn3C(=O)Nc3ccccc3)cc2)CC1	.	2%	-27%	1%	-11%	-1%	-2%	.
COC(=O)c1c(C(=O)OC)c2n(c1C)CCC2	0.3%	1%	0%	-8%	3%	4%	-15%	-1%
COc1cc(C2CC(=O)C=C(O)C2)cc(OC)c1OC (stereo not given)	7.5%	?	10%	2%	6%	-3%	13%	?
CC(C)(C)NC(=O)c1oc2ccccc2c1NC(=O)c1ccccc1F	-9.6%	.	?	.	.	.	-7%	3%
COc1cc(C(=O)N2CCN(C3CCC(C)CC3)CC2)cc(OC)c1OC (stereo not given)	.	.	.	24%	-1%	8%	-14%	.
CCN1CCCC1CNc1ncnc2c1[nH]c1ccc(Cl)cc12 (stereo not given)	25µM*	-23%	?	-14%	0%	-10%	-8%	16µM*
O=c1c2cn[nH]c2nc(SCc2cccc(Br)c2)n1-c1ccc(Cl)cc1	3.9%	.	-11%[46.1 µM]	.	.	.	0%	-20%
CC1(C)OC(=O)N(Cc2ccco2)C1(C)O (stereo not given)	3.6%	-8%	4%	1%	3%	-3%	-17%	-14%
COc1ccc(CC(=O)NCC(=O)NC(Cc2ccccc2)C(=O)O)cc1 (stereo not given)	.	?	2%	1%	5%	-4%	6%	.
O=c1cc(SCc2ccc(Cl)cc2Cl)nc[nH]1	.	-7%	-1%	.	-20%	.	-16%	.
COCCCNC(=O)c1ccc(Cn2c(=O)c3ccccc3n(CC(=O)NCc3ccco3)c2=O)cc1	.	.	.	1%	2%	-1%	-14%	.
COC(=O)c1ccc(NS(=O)(=O)c2ccc(Cl)cc2)o1	.	?	-4%	-2%	2%	5%	10%	.
Cc1c(C(=O)Nc2ccc(Br)cc2F)sc2ncnc(N(C)C3CCCCC3)c12	0.4%	.	16%[46.1 µM]	.	.	.	2%	-1%
O=C(COC(=O)Cc1ccc(Br)cc1)NC1CCCCC1	.	28%[46.1 µM]	?	.	?	-5%	-12%	.
Cc1ccc(Cl)cc1-n1nnc(-c2nc(-c3ccc4c(c3)OCO4)no2)c1C	6.8%	.	3%[46.1 µM]	.	.	.	-11%	-9%
Cc1cccn2cc(-c3cccc(S(=O)(=O)N4CCOCC4)c3)nc12	.	12%	-8%	13%	0%	2%	-2%	.
CC(=O)NC(NC(C)=O)c1cccc(OCc2ccccc2)c1	0.7%	-1%	16%	2%	-2%	-3%	-15%	6%
O=C(COc1ccccc1)N(Cc1cc2ccccc2[nH]c1=O)CC1CCCO1 (stereo not given)	0.1%	?	3%	3%	12%	0%	-24%	6%
O=C(OCC#CCSc1nc2ccccc2o1)c1cc2ccccc2o1	-2.6%	25%	14%	4%	11%	12%	13%	24%
CCC(C)[C@H](NC(=O)OC(C)(C)C)C(=O)N/N=C/c1ccc2nccnc2c1 (stereo not given in full)	3.6%	14%	-15%	-6%	1%	-10%	0%	7%
COc1ccc(-n2c(COc3ccc(C)cc3)n[nH]c2=S)cc1	.	.	.	6%	4%	15%	-2%	.
O=C(NCc1ccccc1)c1ccc2c(c1)N(Cc1cccc(Cl)c1)C(=O)c1ccccc1S2(=O)=O	-2.8%	.	-9%[46.1 µM]	.	.	.	-10%	?
O=C(CCNC(=O)Cn1cnc2ccccc2c1=O)NCCC1=CCCCC1	5.6%	1%&8%	0%	2%	-15%	0%	4%	4%
O=C(O)c1ccc(COCC(F)(F)F)cc1	-0.2%	3%	-3%	-13%	-3%	1%	16%	-12%
COc1ccccc1C(CNc1nc(C(F)(F)F)nc2ccccc12)N(C)C (stereo not given)	.	?	-27%[46.1 µM]	-9%	-7%	1%	-12%	.
Cc1cccc(NS(=O)(=O)c2ccc(C(C)(C)C)cc2)n1	.	.	.	-28%	-3%	-6%	89%[activator]	.
COc1ccc(N2CCN(c3nc(C)c(C)c(=O)[nH]3)CC2)cc1	.	1%	?	0%	2%	?	0%	.
CCN1CCN(C(=S)NCC(C)C)CC1	1.5%	-2%	-2%	-4%	22%	8%	-28%	4%
Cc1cc(Cl)ccc1Oc1nc(-c2ccc(F)cc2)ccc1C#N	6.5%	4%	-2%	?	-6%	15%	-2%	-27%
Cc1ccc2ccc(C)[n+](CCCS(=O)(=O)[O-])c2c1	.	?	9%	.	16%	1%	-11%	.
CC(C)Cc1nc2ccccc2[nH]1	.	7%	12%	0%	-4%	1%	-1%	.

Later entries.
SMILES	Cruzain inh Det	MARV entry inh	LASV entry inh	NS1 function inh	RE007 growth inh	SARS PLpro yeast	2A StopGo	Cruzain inh noDet
COc1ccccc1NNC(=O)c1cccnc1Oc1ccccc1	.	-11%[46.1 µM]	?	-2%	47%	-1%	-19%	.
CCN(Cc1ccccc1)C(=O)C1CCC(CNS(=O)(=O)c2ccc3c(c2)CCCC(=O)N3)CC1 (stereo not given)	1.0%	.	-18%[46.1 µM]	.	.	.	?	?
COc1ccc(Nc2cc(C(=O)NC3CCCC3)c3ccccc3n2)c(OC)c1	-14%	-24%&25%[46.1 µM]	0%&5%[46.1 µM]	-9%	-3%	-12%	-14%&-7%	8%
COc1ccc2c(c1)c(=O)c(C(=O)c1ccccc1)cn2CC(=O)Nc1ccc2c(c1)OCO2	-2.7%	0%[46.1 µM]	1%[46.1 µM]	.	.	.	-11%	-25%
CCCc1nc2cc(Cl)c([N+](=O)[O-])cc2o1	.	3%[46.1 µM]	-3%[46.1 µM]	1%	1%	-1%	-2%	.
